# CBX7 inh – blocks human CBX7 binding to H3K27me3 peptide; O95931; AlphaScreen His6-CBX7 / biotin-H3K27me3 peptide binding; active compounds read low; normalised signal (fraction of DMSO) (test concentration not listed); 66,000 tested, 1.1% active; AID 1224903; in the data active means normalised signal below about 0.5;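 further: 100 nL library stock added to about 20 µL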
# Target sequence (O95931 whole entry, looked up): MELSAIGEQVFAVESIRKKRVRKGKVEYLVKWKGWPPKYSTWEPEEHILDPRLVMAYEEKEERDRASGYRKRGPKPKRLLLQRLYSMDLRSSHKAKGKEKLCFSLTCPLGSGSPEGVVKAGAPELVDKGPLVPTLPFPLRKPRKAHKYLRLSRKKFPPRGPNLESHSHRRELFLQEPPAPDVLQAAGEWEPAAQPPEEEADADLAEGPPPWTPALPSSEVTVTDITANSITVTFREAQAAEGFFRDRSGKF
# CBX7 inh z-score – also measured in CBX7 inh; calls as there; z-score; measured here: z-score of CBX7 signal; some inactives read as strong as hits; reference of the scale not given here;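 same signal on another scale; lower means less binding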
# An asterisk follows results filed as active; & = joins results of further samples. Not all compounds are listed, so the mix of outcomes need not match the whole.
SMILES,CBX7 inh,CBX7 inh z-score
Cc1c(C(=O)NCc2ccc(F)cc2)sc2ncnc(N3CCN(c4ccccc4)CC3)c12,0.87,-1.7
COc1cccc(-c2nnc(NC(=O)c3ccc(S(=O)(=O)N(C)C)cc3)o2)c1,0.23*,-13*
COc1ccc(Nc2cc(C(=O)N3CCN(c4ccc(F)cc4)CC3)c3ccccc3n2)c(OC)c1,0.72,-3.7
Cc1ccc(C)c2[nH]c(=O)c(CCNC(=O)Cc3cccc4ccccc34)cc12,1.1,0.16
CCCCNC(=O)CCc1c(C)nc2c(-c3ccccc3)c(C)nn2c1C,1.2,2.3
COc1ccc(NC(=O)CCCOc2cc(=O)n(C)c3ccccc23)c(OC)c1,0.89,-1.8
COc1cccc(N2CCN(C(=O)c3ccc(Cn4c(=O)[nH]c5ccccc5c4=O)cc3)CC2)c1,0.66,-0.96
Fc1ccc(-c2nnc3ccc(NCCCN4CCN(Cc5ccccc5)CC4)nn23)cc1,0.82,-2.6
Clc1ccc(CNc2ccc3nnc(-c4ccccc4)n3n2)cc1,1.1,1.2
COc1ccc(NC(=O)C(NS(=O)(=O)c2ccc3nc(C)sc3c2)C(C)C)cc1OC (configuration not stated),0.99,-0.17
COc1cccc(Nc2ncnc3sc(C)c(S(=O)(=O)N4CCC(C)CC4)c23)c1,1.1,0.74
COc1cc(C(O)c2nc3ccccc3n2C(C)C)ccc1OCc1ccccc1 (configuration not stated),0.81,-4.2
O=C(NCCN1CCOCC1)c1ccc2c(c1)N(Cc1ccc(Cl)cc1)C(=O)CS2,1,0.67
COc1cc2c(C(=O)N(C)c3cc(Cl)ccc3OC)cn(C)c(=O)c2cc1OC,1.1,3.9
COc1cc(OC)cc(C(=O)Nc2ccc3nc(N4CCCCC4)cc(C)c3c2)c1,0.85,-2.7
Cc1c2c(nc3c(C(=O)NCc4ccc(F)cc4)cnn13)CCCC2,1,1.3
O=C(NCCc1ccccc1)c1ccc2c(c1)N(Cc1ccc(F)cc1)C(=O)c1ccccc1S2=O (configuration not stated),0.88,-3.3
CCC(C)NC(=O)C1CCCN(c2nc3ccc(OC)cc3s2)C1 (configuration not stated),1,0.19
Cc1ccc2cc(C)c(NCc3cccnc3)nc2c1,0.87,-1.7
O=C(Nc1ccc(Cl)c(Cl)c1)N(Cc1cccnc1)Cc1ccccc1Cl,0.99,-0.3
Cc1ccc2c(c1)N(CCC(=O)NCCC(C)C)C(=O)CO2,1.1,2.4
COc1ccc(CCn2c(=O)c3cccnc3n(Cc3ccc(Cl)cc3)c2=O)cc1OC,0.95,-1.3
Cc1ccc2ccccc2c1CSc1nnnn1-c1ccc(C(N)=O)cc1,0.94,-1.3
O=C(CC1CCCCC1)Nc1c2c(nn1-c1ccc(Cl)cc1)CS(=O)(=O)C2,0.98,-0.15
COc1ccc(C(=O)NCc2nc3ccccc3n2Cc2cc(C)ccc2C)cc1OC,0.79,-2.4
Cc1ccn2c(=O)c(C(=O)Nc3ccc(C)c(Cl)c3)cnc2c1,1,1.1
CN(C)CCNC(=O)c1csc2c1CCCCC2,1,0.29
COc1cccc(NC(=O)CSc2nc3ccccc3o2)c1,0.86,-2.3
O=C(CSc1nnc(Cc2cc(=O)[nH]c(=O)[nH]2)n1-c1ccc(F)cc1)Nc1cccc(Cl)c1,1,0.081
COCC(=O)Nc1c(C(=O)Nc2ccccc2F)oc2ccccc12,1.1,1.7
Cc1c(Cl)cccc1-c1ccc(C(=O)Nc2ccc3oc(-c4cccnc4)nc3c2)o1,1,0.45
O=C(CN1C(=O)COc2ccccc21)NCCN1CCOCC1,1.1,2.2
CSc1nnc(Cc2cc(=O)[nH]c(=O)[nH]2)n1-c1ccc(Cl)cc1,1,0.46
CCOC(=O)c1cnc2ccc(Br)cc2c1NCCc1ccccc1,1.2,7.7
CCOc1ccccc1NC(=O)CSc1nnc(CNC(=O)COc2ccc(Cl)cc2)o1,1,1
O=C(O)c1ccc(NC(=O)c2cc(S(=O)(=O)N3CCOCC3)cs2)cc1,1,0.31
CCOC(=O)c1c[nH]c2c(C(F)(F)F)cccc2c1=O,0.93,-0.27
Cc1cccc(Nc2nc(-c3ccccc3)c(CC(=O)O)s2)c1C,0.97,-0.72
COc1cccc(-n2ccnc2SCC(=O)Nc2cc(C)on2)c1,0.94,-1.1
Cc1ccc(Cn2c(=O)cc(C(=O)NC3CC3)c3ccccc32)cc1,0.91,-0.87
O=C(CSc1nnc(CNC(=O)c2c(F)cccc2Cl)o1)NCc1ccccc1,0.89,-1.8
O=C(NCc1cccnc1)c1nn2c(C(F)(F)F)cc(-c3cccs3)nc2c1Br,0.97,-0.28
COc1ccc(OC)c(C2CC(c3ccc(Cl)cc3)Nc3ncnn32)c1 (configuration not stated),0.95,-1.6
O=C(Nc1ccc(Cl)c(-c2nc3cc(Cl)ccc3o2)c1)c1ccccc1F,1.1,1.5
Fc1ccc(Nc2c(-c3c[nH]c4ccccc34)nc3ccccn23)cc1,0.81,-1.8
CC1CCN(S(=O)(=O)c2ccc3nc(-c4cccnc4)cc(C(=O)NCC4CCCO4)c3c2)CC1 (configuration not stated),1.1,1.4
CC(=O)Nc1cccc(Oc2nnc(Oc3cccc(NC(C)=O)c3)c3ccccc23)c1,0.69,-3
Cc1c(C(=O)N2CCOCC2)[nH]c2ccc(OCc3ccccc3)cc12,0.89&0.96,-2.3&-0.82
COc1ccccc1-c1nnc(NC(=O)c2ccc(S(=O)(=O)N(C)Cc3ccccc3)cc2)o1,0.00085*,-17*
Cc1ccc(O)c(-c2cc(C(F)(F)C(F)F)nc(-c3ccccc3)n2)c1,0.99,-0.14
COc1ccc(C(=O)NC(C)C(c2cccs2)N2CCN(C)CC2)cc1 (configuration not stated),0.99,-0.24
CCOc1cccc(C(=O)Nc2nnc(CSCc3ccccc3)s2)c1,1.2,1.4
COc1ccc(-c2ccc(=O)n(CC(=O)Nc3ccc(C)c(C)c3)n2)cc1,0.93,-1.8
Cc1noc(C)c1S(=O)(=O)N1CCN(c2cccc(Cl)c2)CC1,1,1.5
Cc1ccc(NC(=O)CNC(=O)Cn2cnc3ccccc3c2=O)cc1F,1,0.15
O=C(Nc1ccc2c(c1)C(=O)NC2=O)c1ccc(Cl)cc1Cl,1,0.67
COc1cc(OC)cc(-c2nc3nc(C)c(CCC(=O)Nc4ccc(C)cc4)c(C)n3n2)c1,1,0.7
COc1ccccc1Cc1nc2ccccc2nc1SCC(=O)NC1CCCCC1,1.1,1.6
CCc1ccccc1NC(=O)COc1cc(=O)n(CC)c2ccccc12,0.9,-1.7
Cc1ccccc1C(=O)Nc1ccc2c(c1)nc1n2CCN(Cc2ccccc2)C1,1,-0.18

# Reprinted from the part before: seven compounds; new compounds follow.
SMILES,CBX7 inh,CBX7 inh z-score
Cc1noc(C)c1S(=O)(=O)N1CCN(c2cccc(Cl)c2)CC1,1,1.5
Cc1ccc(NC(=O)CNC(=O)Cn2cnc3ccccc3c2=O)cc1F,1,0.15
O=C(Nc1ccc2c(c1)C(=O)NC2=O)c1ccc(Cl)cc1Cl,1,0.67
COc1cc(OC)cc(-c2nc3nc(C)c(CCC(=O)Nc4ccc(C)cc4)c(C)n3n2)c1,1,0.7
COc1ccccc1Cc1nc2ccccc2nc1SCC(=O)NC1CCCCC1,1.1,1.6
CCc1ccccc1NC(=O)COc1cc(=O)n(CC)c2ccccc12,0.9,-1.7
Cc1ccccc1C(=O)Nc1ccc2c(c1)nc1n2CCN(Cc2ccccc2)C1,1,-0.18
COc1cccc(C(=O)Nc2ccc3oc(-c4ccc5ccccc5c4)nc3c2)c1,1.1,2.4
COc1cc2c(C(=O)N(C)c3ccccc3C)cn(CC(C)C)c(=O)c2cc1OC,1,1.3
COc1ccc(OC)c2[nH]c(=O)c(CCNS(=O)(=O)c3ccc(Cl)cc3)cc12,1,0.38
CCOC(=O)c1cnc2c(ccc3ccccc32)c1Nc1cccc(OC)c1,0.93,-0.74
CN(C)S(=O)(=O)c1ccc(C(=O)Nc2ccccc2-c2nc3ccccc3[nH]2)cc1,1,-0.1
CC(NC(=O)c1cccc(F)c1)C(c1cccs1)N1CCN(C)CC1 (configuration not stated),0.99,-0.2
O=C(NCc1ccccn1)C1CCC(CNS(=O)(=O)c2cccc3cccnc23)CC1 (configuration not stated),1,0.059
CCC1Oc2ccc(Cl)cc2N(C(C)C(=O)NCCCOC)C1=O (configuration not stated),0.8,-2.2
CCOC(=O)c1cnc2cc(C(F)(F)F)ccc2c1Nc1cc(OC)ccc1OC,1.1,1.2
Cc1ccc(S(=O)(=O)c2nc(-c3ccccc3F)oc2N2CCOCC2)cc1,0.6,-3.9
CCC(Cc1ccccc1)NC(=O)CS(=O)(=O)Cc1nc(-c2ccccc2C)oc1C (configuration not stated),0.98,-0.52
COc1ccc(N(CC(=O)NCc2ccc3c(c2)OCO3)S(=O)(=O)c2c(C)nn(C)c2C)cc1,1.2,1.1
Cc1ccc(C)c(N2CCN(C(=O)CC3Sc4ccccc4NC3=O)CC2)c1 (configuration not stated),0.5*,-9.5*
COc1ccc(-c2cc(-c3ccccc3O)[nH]n2)cc1,0.65,-6.9
Cc1cccc(C(=O)N2CCc3c([nH]c4ccccc34)C2c2ccc(Cl)cc2)c1 (configuration not stated),0.73,-4.4

# Compound profiles, from the list above. Order of screens: CBX7 inh, CBX7 inh z-score
# `O=C(NCc1ccccn1)C1CCC(CNS(=O)(=O)c2cccc3cccnc23)CC1` (configuration not stated) as listed: 1, 0.059
# `COc1ccc(N(CC(=O)NCc2ccc3c(c2)OCO3)S(=O)(=O)c2c(C)nn(C)c2C)cc1` as listed: 1.2, 1.1
# `Cc1cccc(C(=O)N2CCc3c([nH]c4ccccc34)C2c2ccc(Cl)cc2)c1` (configuration not stated) as listed: 0.73, -4.4

# Further structures:
SMILES,CBX7 inh,CBX7 inh z-score
O=C(CC1Nc2ccccc2NC1=O)Nc1ccccc1C(F)(F)F (configuration not stated),0.97,-0.68
O=C(O)c1ccccc1C(=O)Nc1cccnc1,1.1,2.8
CCOc1ccc2nc(N3CCCC(C(=O)NCCc4c[nH]c5ccccc45)C3)sc2c1 (configuration not stated),0.94,-0.39
Cc1ncc(NS(=O)(=O)c2ccc(NC(=O)Nc3ccc(Cl)c(Cl)c3)cc2)c(C)n1,1,0.075
COc1cccc(NC(=O)Cn2cc(S(=O)(=O)c3ccc(F)cc3)c(=O)c3ccccc32)c1,0.92,-2.5
Nc1nonc1C(=O)N1CCCCCC1,0.81,-2.4
COc1ccc(CCNC(=O)CNc2ccccc2-c2nc3ccccc3[nH]c2=O)cc1OC,1,0.5
O=C(Nc1ccc(-c2csc(-c3ccccc3)n2)cc1)c1ccncc1,0.95,-2.2
CCCN(CCC)S(=O)(=O)c1ccc2c(c1)N(CC(=O)NCCc1ccccc1)C(=O)CS2,0.98,-0.6
CCC(=O)N1CCc2cc(S(=O)(=O)NCCC(=O)NCc3ccccc3Cl)ccc21,1,0.84
c1ccc(-c2nnc3sc(-c4cccs4)nn23)cc1,1,1.3
Cc1ccc(C(=O)Nc2cccc(O)c2)cc1S(=O)(=O)N1CCCCC1,0.88,-1.9
CCOc1ccccc1C(=O)Nc1ccc2nc(N3CCCCC3)cc(C)c2c1,1.3,8
CCCC(=O)N1CC(=O)Nc2ccc(Br)cc2C1c1ccc(F)cc1 (configuration not stated),0.94,-1.3
Cc1cccc(CN2C(=O)c3ccccc3Sc3ccc(C(=O)O)cc32)c1,1,0.26
COc1ccc2c(c1)c(=O)c(S(=O)(=O)c1ccc(C)cc1)cn2CC(=O)Nc1ccc(F)cc1,0.92,-1.2
O=C(Nc1ccc(F)c(Cl)c1)C1CCN(S(=O)(=O)c2cnc[nH]2)CC1,1,0.017
Cc1ccc2oc(-c3ccc(NCc4cc(Cc5ccccc5)ccc4O)cc3)nc2c1,0.8,-5
CC(C)n1c(NCc2ccc(Cl)cc2)nc2ccccc21,0.99,-0.31
Cc1ccc(Cc2c(C)nc3c(C(=O)NC4CCCCC4)cnn3c2C)cc1,1.1,2.2
O=C(Nc1c2c(nn1-c1ccc(Cl)cc1)CS(=O)(=O)C2)C1(c2ccc(Cl)cc2)CCCC1,0.9,-1.1
COc1ccc(C(=O)Nc2c(C(=O)Nc3ccc(F)cc3)oc3ccccc23)cc1,1.1,0.85
COc1ccc(-c2nc(C#N)c(NCc3ccccc3Cl)o2)cc1,1,-0.0063
COc1ccc(-c2cn3c(C)c(C(=O)Nc4cccc(OC)c4)sc3n2)cc1,1,0.72
O=C(O)c1cccc(NC(=O)c2ccc3c(c2)C(=O)N(c2ccccn2)C3=O)c1,0.96,-1.1
CC1CCCN(S(=O)(=O)c2ccc(C(=O)Nc3nnc(C4CC4)o3)cc2)C1 (configuration not stated),0.6,-3.9
COc1cccc(NC(=O)c2nn(-c3cccc(OC)c3)c(=O)c3ccccc23)c1,0.95,-0.74
Cc1cc(C(=O)NCc2ccccc2)n(-c2ccccc2)n1,1.2,2.3
Cc1ccc(C)c(Cc2c(C)nc3c(C(=O)NCCC(C)C)cnn3c2C)c1,1,0.94
Cn1c(CCNC(=O)c2ccc(Cl)cc2)nc2ccccc21,1,0.097
Cc1c2n(c3ccccc13)CCNC2c1ccccc1 (configuration not stated),0.67,-4.5
COc1ccc(CN2C(=O)c3ccccc3C2C(=O)NCc2cccnc2)c(OC)c1 (configuration not stated),1.1,2.9
CC1=C(C(=O)Nc2cccc(C)n2)C(c2ccc(Br)cc2)C2=C(CC(C)(C)CC2=O)N1 (configuration not stated),1.1,0.95
COc1cccc(-n2c(/C=C/c3cn(C)c4ccccc34)nc3ccccc3c2=O)c1,0.92,-3.2
COc1ccc(Nc2c3c(nc4ccc(Cl)cc24)CCCC3)cc1OC,0.86,-0.19
O=C(NCCc1c[nH]c2ccccc12)C(=O)NCc1ccc2c(c1)OCO2,0.88,-1.3
Cc1c(C(=O)NCCc2ccc(S(N)(=O)=O)cc2)sc2nc(-c3ccccc3)cn12,1,1.2
CC1(C)CC2CC(C)(CN2c2ncnc3ccc(Br)cc23)C1 (configuration not stated),0.95,-0.6

# Two successive compounds from above, for reference:
SMILES,CBX7 inh,CBX7 inh z-score
Cc1c(C(=O)NCCc2ccc(S(N)(=O)=O)cc2)sc2nc(-c3ccccc3)cn12,1,1.2
CC1(C)CC2CC(C)(CN2c2ncnc3ccc(Br)cc23)C1 (configuration not stated),0.95,-0.6

# Compound activity as filed in PubChem BioAssay.
